# Screens: PubChem BioAssay, several laboratories
# T cruzi inh: T. cruzi replication inhibition; T. cruzi beta-gal in NIH3T3, luminescence, 90 h; inhibition, % (no concentration beside the values); 300,000 tested, 1.4% active;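 active means mean inhibition across valid replicates above about 55%, limit read from the data; inconclusive means mean below that limit but half or more replicates reach it; inactive means mean below it, under half of replicates reach it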;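 further: signal also drops with host cell toxicity which is not excluded here; 0% = plate median of DMSO wells and 100% = zero luminescence signal; higher percent means less beta-gal luminescence so fewer parasites; stock transfer was 50 nL into about 50 µL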
# Bfl-1 A1 inh: inhibitors of the anti-apoptotic protein A1, read as caspase activation; MEF A1-2A-BIM cells, Caspase-Glo 3/7 luminescence, 3 h; percent of clofoctol response, vehicle zero; 330,000 tested, 0.066% active; AID 2462; caspase activation, % (test concentration not listed);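 active means over half of replicate activation scores above 10%, or exactly half above 10 with the replicate mean above 10; inconclusive means replicate mean below 10 yet half the replicates above 10; inactive means over half of replicates below 10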;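 further: wells of about 30 µL received 50 nL stock; many hits fall short of the cut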
# Calb FLC: C. albicans growth modulation with fluconazole. AID 1979. C. albicans CaCi-2 (fluconazole-resistant clinical isolate) + fluconazole, Alamar Blue growth, 48 h. 300,000 tested, 0.57% active. growth inhibition, % (concentration not given with the values);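 active means most replicates above 75%; inconclusive means exactly half above 75%; inactive means most below 75%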;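 further: all wells also contain fluconazole at 8 µg/ml as a sub-toxic cotreatment; 0% = median of DMSO wells and 100% = median of geldanamycin control wells; wells of about 8 µL received 7.5 nL stock; the first replicate is given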
# RanGTP-Imp inh: inhibitors of RanGTP-importin-beta interaction, primary screen, biochemical, FRET, CFP-Ran, YFP-importin-beta, homogeneous; cell-free CFP-Ran/YFP-importin-beta FRET ratio; inhibition, % (concentration not given with the values); 300,000 tested, 1.1% active; AID 2216;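 active means most replicates above 15%; inconclusive means exactly half above 15%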;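 further: 0% = DMSO wells and 100% = Ran loaded with GDP instead of GTP; wells of about 40 µL received 100 nL stock; the first replicate is given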
# rRNA inh HTS: selective bacterial rRNA inhibition in E. coli | 350,000 tested, 1.6% active | E. coli WT GFP vs humanized-ribosome RFP mutants, fluorescence, 24 h; stronger effect = lower value; DMSO median 0, no signal -100 | GFP signal change (wild-type ribosome), % (test concentration not listed) | AID 720706;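 active means significant combined selectivity score with lowered wild-type GFP, culture density cut under 30%, mutant RFP and density less affected; inactive means any of these conditions unmet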; further: one replicate is shown; some compounds called inactive have numbers as strong as hits
# Beta apoptosis: beta cell apoptosis inhibition | 300,000 tested, 0.8% active | protection from apoptosis, % (no concentration beside the values) | INS-1E cytokine-induced death, ATP luminescence, 48 h; percent of positive-control rescue, neutral wells zero | AID 435005;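 active means all replicates at 75% or more, or half of them and the mean; inconclusive means half reach 75% but not the mean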;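 further: 0% = cytokine-treated negative control wells and 100% = positive control rescue; higher means more ATP so stronger rescue from cytokine killing; wells of about 40 µL received 100 nL stock; the first replicate is given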
# Vif A3G: HIV-1 Vif–A3G interaction blockers – biochemical, TR-FRET, GST-Vif 1-94, biotin-A3G peptide, dose response retest, primary screen (AID 1117319); TR-FRET GST-Vif / biotin-A3G peptide binding; higher % means a stronger effect; test concentration not given here; strong numbers were not always called active; one-dose inhibition, %; IC50 in µM for titrated hits; 260,000 tested, 0.57% active;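 active means above the screen mean plus three standard deviations and confirmed in dose response; inconclusive means results disagree or hit not tested in dose response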;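 further: Vif residues 1-94 fused to GST binding biotinylated APOBEC3G peptide 110-148; 0% = full assay without inhibitor and 100% = GST in place of GST-Vif; retest series ran down from 100 µM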
# MLL AF4-AF9 inh: blocks AF4 peptide binding to human AF9; P42568; AlphaScreen, biotin-AF4 peptide binding to FLAG-AF9; inhibition, % at 10 µM; 350,000 tested, 0.47% active; AID 651704;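 active means every replicate reaching a set inhibition limit, whatever the replicate mean, cut at about 25% in these data; inconclusive means mean inhibition reaches that limit but some replicates miss it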;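 further: 0% = plate neutral control median and 100% = total signal loss; the record names both 10 and 1 µM as test concentration; the first replicate is given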
# Target sequence (P42568 whole entry, looked up): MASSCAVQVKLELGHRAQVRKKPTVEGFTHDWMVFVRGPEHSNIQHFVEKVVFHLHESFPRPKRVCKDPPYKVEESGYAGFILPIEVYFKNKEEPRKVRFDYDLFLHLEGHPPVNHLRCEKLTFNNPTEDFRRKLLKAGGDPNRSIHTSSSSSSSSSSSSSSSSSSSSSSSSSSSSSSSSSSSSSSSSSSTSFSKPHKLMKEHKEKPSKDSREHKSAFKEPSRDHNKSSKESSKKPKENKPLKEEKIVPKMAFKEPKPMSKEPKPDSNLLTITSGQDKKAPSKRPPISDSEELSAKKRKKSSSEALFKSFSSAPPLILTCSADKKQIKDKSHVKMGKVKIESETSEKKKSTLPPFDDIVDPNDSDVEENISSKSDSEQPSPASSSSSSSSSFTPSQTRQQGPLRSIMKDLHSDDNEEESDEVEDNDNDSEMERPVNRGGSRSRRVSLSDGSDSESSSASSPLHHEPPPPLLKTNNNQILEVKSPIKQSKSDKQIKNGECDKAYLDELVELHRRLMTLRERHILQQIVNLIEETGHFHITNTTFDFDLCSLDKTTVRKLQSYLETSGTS
# rRNA inh HTS OD600: further read-out of rRNA inh HTS, marked with its call; OD600 change, %; measured here: OD600 growth;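 optical density of the mix in the first replicate; 0 = DMSO median and -100 = no signal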
# rRNA inh HTS RFP: further read-out of rRNA inh HTS, marked with its call; RFP signal change, %; measured here: RFP humanized mutant strains;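 first replicate; 0 = DMSO median and -100 = no signal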
# The depositor's hits bear a star; ? = inconclusive; · = not tested or not shown. The list is partial (hit frequency here may not be typical).
SMILES,T cruzi inh,Bfl-1 A1 inh,Calb FLC,RanGTP-Imp inh,rRNA inh HTS,rRNA inh HTS OD600,rRNA inh HTS RFP,Beta apoptosis,Vif A3G,MLL AF4-AF9 inh
C/C(=N\NC(=O)c1nnn(-c2nonc2N)c1C(C)C)c1ccc2ccccc2c1,-12,1.2,-7,2.3,5,3,0.6,3,-1%,-2.7
Cc1cccc(/C(N)=N/OC(=O)c2cccc3ccccc23)c1,3,0.9,6,1.0,-7,4,-1.3,-1,·,-2.5
Fc1ccccc1NC(=S)N1CCN(Cc2ccc3c(c2)OCO3)CC1,-8,0.1,2,?,-4,-7,1.7,-5,4%,-0.9
Cc1cc2c(c(=O)o1)C(C(C)C)C(C#N)=C(N)O2 (stereo unspecified),-5,1.2,?,3.0,·,·,·,-3,-3%,·
CCn1nc(C)c(CN2CCCCC2C(=O)Nc2ccc(Oc3cccnc3)cc2)c1C (stereo unspecified),6,-0.3,-4,2.2,·,·,·,·,11%,·
Cc1nnc(NC(=O)CCC(=O)NCc2ccco2)s1,·,1.1,-2,-4.1,·,·,·,-2,6%,·
Cc1cc(SCC2=NNC(=O)C2)c(Cl)cc1Cl,-21,0.2,9,-2.7,-3,1,-1.7,-4,63µM*,-0.8
Cc1nc(SCC(=O)N2CCc3ccccc3C2)c2c(C)c(C)sc2n1,18,0.9,4,3.1,·,·,·,8,7%,·
Cc1ccc(NC(=O)C[n+]2ccccc2)cc1[N+](=O)[O-],-11,-0.4,-6,-3.5,·,·,·,-10,-3%,·
O=C(COc1ccc2ccc(=O)oc2c1)Nc1ccc(N2CCOCC2)cc1,3,-0.6,?,6.1,·,·,·,10,5%,·
CCCC(=O)n1nc(-c2cccnc2)nc1NCc1ccccc1,-9,·,-15,0.3,2,3,-0.2,·,-2%,13
COc1ccc(Oc2nc(C)cc(C)c2S(=O)(=O)c2ccc(C)cc2)cc1,15,1.1,-24,0.0,·,·,·,4,20%,·
CCCCN(CCCNC(=O)C1CCCN(S(=O)(=O)CCC)C1)Cc1ccccc1 (stereo unspecified),7,0.8,2,-1.8,20,5,0.9,·,0%,-5.0
C(=N\NC1=Nc2cccc3cccc1c23)/c1cccnc1,-9,-3.8,72,-2.6,-31,-53,-1.1,4,5%,10
Cc1cccc(C)c1NC(=O)N1CCC(c2nc3ccccc3o2)CC1,-18,-0.1,-1,-1.9,·,·,·,0,2%,·
CCc1ccc(OCCOCC(O)CN2CCN(Cc3ccc(Cl)cc3)CC2)cc1 (stereo unspecified),31,0.0,-24,-1.3,-17,-19,16,19,12%,5.3
Cc1ccc(S(=O)(=O)N2CCN(C)CC2)c(C)c1,9,0.2,-7,-0.7,·,·,·,0,6%,·
COc1ccc(CC(=O)NCc2ccc(-n3cccc3)cc2)cc1OC,-44,0.5,1,-3.5,-8,-15,0.5,39,-2%,0.0
CCOc1ccc(C2C(C#N)=C(N)SC(N)=C2C#N)cc1OC,7,-0.5,25,26*,·,·,·,1,4%,·
COc1ccc(CN(C(=O)CN2C(=O)c3ccccc3S2(=O)=O)C(C(=O)NCC2CCCO2)c2ccncc2)cc1 (stereo unspecified),5,0.0,9,0.4,·,·,·,-9,·,·
Cc1ccc(Nc2ccc(C(=O)N3CCCC3)cn2)c(C)c1,5,-3.1,-3,-0.6,·,·,·,-3,-7%,·
Cc1cc2nc(N)sc2cc1C,-15,-8.0,·,-0.4,·,·,·,3,-4%,·
Cc1ccc(C)c(NC(=O)CSc2nnc(NC(=O)C3CC3)s2)c1,4,0.1,-4,0.6,12,6,2.0,-4,·,-3.2
Cc1cccc(C(=O)Nc2ccccc2C(=O)NCc2ccco2)c1,7,-0.4,14,2.5,-10,-18,0.8,4,-2%,4.5
Cc1ccccc1/C(N)=N/O,-6,-2.3,-6,2.2,·,·,·,-5,?,·
COc1ccc(C(C)NC(=O)Cc2cccs2)cc1 (stereo unspecified),-19,0.1,-7,3.0,0,3,0.7,0,·,-2.7
COc1ccc(/C=C2\SC(=S)N(C(C(=O)O)c3ccccc3)C2=O)c(OC)c1 (stereo unspecified),-11,-0.4,21,-11,-47,-44,-12,-5,-9%,-4.9
CN1CCc2c(sc(NC(=O)Cc3ccccc3)c2C#N)C1,22,0.0,6,164*,5,11,-6.9,6,·,2.2
Cc1cc(C(=O)COC(=O)Cc2n[nH]c(=O)c3ccccc23)c(C)n1-c1ccc2c(c1)OCCO2,69*,1.2,3,3.7,-33,-54,-0.2,-2,3%,8.7
O=S(=O)(c1ccc(Oc2ccc3oc4ccccc4c3c2)nc1)N1CCCC1,-14,0.0,-1,-10,·,·,·,5,-11%,·
Cc1ccc(NC(=O)C(C)c2ccc(-c3ccccc3)c(F)c2)cc1 (stereo unspecified),52,0.2,-5,4.4,·,·,·,56,-2%,·
Cc1ccc(NC(=S)Nc2cccc3ccccc23)cc1,-6,0.5,2,6.2,·,·,·,11,·,-0.4
CN(C)C(=O)CNC(=O)C1CCCCC1,-5,1.6,-2,-1.8,·,·,·,-3,-3%,·
CSCCC(NC(=O)C1CCC(C)CC1)C(=O)NCc1ccco1 (stereo unspecified),-17,-1.1,0,1.1,·,·,·,-1,63%,·
O=C(Nc1ccccc1C(=O)N1CCCC1)c1ccccc1,-6,-0.2,8,1.7,9,3,-1.0,-3,3%,-7.2
Cc1nnc(SCCn2c(N3CCC(Cc4ccccc4)CC3)nc3c2c(=O)[nH]c(=O)n3C)s1,26,0.9,4,-1.2,·,·,·,-4,-2%,·
CC(=O)Nc1sc2c(c1C(N)=O)CCCC2,2,1.3,10,-1.2,·,·,·,-9,0%,·
CCc1nc(N2CCN(C(=S)NCCCOC)CC2)c2c3c(sc2n1)CCCC3,24,0.9,-5,-1.7,-24,-29,8.5,·,·,0.3
Cc1scc(C(=O)NNC(=S)NCC2CCCO2)c1-c1ccccc1 (stereo unspecified),-12,0.3,4,-0.8,·,·,·,-4,14%,-0.2
CSc1ncccc1C(=O)NC1CCCCCCC1,-6,-0.4,1,0.0,1,2,0.5,3,4%,1.5
CCOc1ccc(/C(O)=C2/C(=O)C(=O)N(CCN(CC)CC)C2c2cccs2)cc1 (stereo unspecified),-3,0.0,1,-0.6,6,6,2.3,-8,-12%,3.4
CNC(=O)COC(=O)/C=C/c1nc2ccccc2s1,-8,1.1,-5,-3.9,9,4,4.8,-4,-3%,-1.1
O=C(NCCCN1CCCC1=O)c1c(O)nc2ccccn2c1=O,6,-0.9,5,0.6,6,15,-1.1,0,·,1.1
CC(NC(=O)NC(N)=O)(C(F)(F)F)C(F)(F)F,39,1.6,2,-2.4,11,6,2.2,2,?,-2.3
Clc1ccc(C(CCN2CCCC2)Cc2ccccc2)cc1 (stereo unspecified),17,0.9,-3,-0.9,3,-5,-0.4,5,·,3.1
CCc1nnc2n1N=C(c1cccc([N+](=O)[O-])c1)CS2,4,0.0,-8,-0.6,6,7,-1.9,7,?,0.7
O=C(CCSc1nc(-c2ccco2)cc(C(F)(F)F)n1)N1CCN(c2ccccn2)CC1,13,0.4,-6,-1.0,·,·,·,-3,4%,·
COc1cc(OC)c2c(-c3ccccc3)cc(=O)oc2c1C(CC(=O)N1CCOCC1)c1ccc2c(c1)OCO2 (stereo unspecified),-10,-0.5,10,2.1,-16,-7,-4.1,1,·,7.0
O=C(CN1CCN(C(c2ccccc2)c2ccccc2)CC1)N1N=CCC1c1ccccc1 (stereo unspecified),18,0.4,-2,0.7,-21,-27,7.6,1,6%,·
O=C1c2cccc3cccc(c23)C(=O)N1c1cccc(O)c1,1,0.6,-7,4.8,2,11,4.6,6,-1%,-3.3
CC(C)(C)NC(=O)CN(Cc1cccs1)C(=O)CCC(=O)Nc1nccs1,7,-0.8,6,-1.6,8,1,-0.4,-5,?,-1.2
c1ccc(-c2nccc3ccccc23)cc1,-9,0.1,13,-0.3,3,4,0.2,-10,·,3.3
CCn1c(SC)nc(O)c(C(c2ccc(OC)c(O)c2)c2c(O)nc(SC)n(CC)c2=O)c1=O,-14,-0.6,9,?,·,·,·,-6,18%,·
FC(F)(F)c1ccc(CN2C[C@@H]3C(c4ccc(Cl)nc4)C4(c5ccccc5)CC3(C4)[C@H]2c2ccccc2)cc1 (stereo partly specified),19,2.6,-5,-0.9,7,-7,-1.1,9,·,-2.0
CNC(=S)SCCOc1ccccc1C,-23,-0.1,-7,-0.2,-16,-15,0.6,·,·,5.9
CC1(C)CC[C@]2(CO)[C@@H](O)C[C@]3(C)C(=CCC4[C@@]5(C)CC[C@H](O)C(C)(C)C5CC[C@]43C)[C@@H]2C1 (stereo partly specified),43,-0.5,-1,2.8,·,·,·,11,·,·
COc1ccc(N2CCN(C(=O)CSc3nc4[nH]ncc4c(=O)n3-c3ccc(Br)cc3)CC2)cc1,41,0.2,-11,-2.5,-15,-18,-0.8,13,1%,10
COc1ccc(-n2nnnc2SCC(=O)Nc2ccccc2)cc1,0,-0.6,-3,4.5,·,·,·,-2,-1%,·
CCN1C(=O)[C@H]2[C@@H](c3ccc(C)cc3)N3C(=O)N(c4cccc(F)c4)C(=O)[C@@]3(Cc3ccc(Cl)cc3)[C@H]2C1=O,-7,0.0,2,1.4,6,6,-1.3,-7,·,6.0
O=C(CSc1nnc(-c2ccccn2)o1)Nc1ccccc1F,-9,0.6,7,1.2,-7,-6,-2.7,-6,·,3.2
# Next records:
SMILES,T cruzi inh,Bfl-1 A1 inh,Calb FLC,RanGTP-Imp inh,rRNA inh HTS,rRNA inh HTS OD600,rRNA inh HTS RFP,Beta apoptosis,Vif A3G,MLL AF4-AF9 inh
CCOC(=O)c1sc2nc(C)nc(SCC(=O)NC3CCS(=O)(=O)C3)c2c1C (stereo unspecified),5,-0.6,-9,1.0,2,5,-2.0,1,·,-1.3
O=C(Nc1ccc2c(c1)OCO2)O[C@@H]1C[C@H]2CCCC(=O)N3CC[C@@H](C1)[C@@H]23,-4,1.3,-20,-2.7,6,16,-4.5,1,·,-3.8
CC(=O)N1CC=C2C(C#N)=C(N)C(C#N)(C#N)C(CCc3ccccc3)C2C1 (stereo unspecified),7,-0.1,5,5.0,·,·,·,·,5%,·
COc1ccc(C)cc1S(=O)(=O)N1CCN(C(=O)c2ncoc2-c2ccc(F)cc2)CC1,-1,-0.3,-6,-0.6,-2,-11,1.3,-5,·,0.1
O=C(CN1CCOCC1)c1c[nH]c2ccccc12,-1,0.2,9,-1.7,·,·,·,2,-7%,·
Cc1ccc(-n2nnnc2SCC(=O)Nc2cc(C)on2)c(C)c1,-10,1.6,-5,1.3,0,6,1.1,-7,·,-0.3
O=C(COC(=O)/C=C/c1ccc(Cl)cc1Cl)Nc1ccc2c(c1)OCCO2,-22,-1.2,39,-1.6,-1,14,-1.4,-3,·,-1.3
COCCCNc1ccnc2c(Cl)cccc12,-1,0.2,-3,-1.1,·,·,·,-5,10%,·
